# Assay outcomes (PubChem BioAssay)
# HNF4A DNA FP: change in binding of human HNF4 alpha to DNA | actives 0.3% (n = 360,000) | HNF4a-FITC DNA binding, fluorescence polarization, 1 h | P41235 | activity change, % at 10 µM | AID 1224865; in the data active = activity change above about 30%, passing the limit was not always enough;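 note: controls were the assay level and a saturating level of protein; the project sought stronger binding though the title names inhibitors; some compounds called inactive have numbers as strong as hits; positive values seem to mean higher polarization but the record does not say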
# Target sequence (P41235 whole entry, looked up): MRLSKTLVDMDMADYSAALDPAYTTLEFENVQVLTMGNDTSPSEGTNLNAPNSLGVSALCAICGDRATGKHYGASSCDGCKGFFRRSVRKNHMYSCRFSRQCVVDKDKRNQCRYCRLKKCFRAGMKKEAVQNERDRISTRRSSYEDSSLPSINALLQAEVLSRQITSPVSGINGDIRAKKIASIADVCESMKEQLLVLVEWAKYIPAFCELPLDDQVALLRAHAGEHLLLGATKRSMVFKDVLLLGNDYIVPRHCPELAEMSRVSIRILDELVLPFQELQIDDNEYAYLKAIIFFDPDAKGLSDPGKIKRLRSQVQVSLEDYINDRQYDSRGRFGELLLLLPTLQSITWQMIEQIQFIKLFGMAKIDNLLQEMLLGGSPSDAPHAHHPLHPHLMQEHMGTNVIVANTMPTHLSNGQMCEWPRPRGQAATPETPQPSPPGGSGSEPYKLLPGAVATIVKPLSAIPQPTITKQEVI
# UCH37 inh: human UCH37 deubiquitinating enzyme inhibition; purified proteasome/UCH37, Ub-AMC cleavage fluorescence; inhibition, % (no concentration beside the values); actives 0.33% (n = 330,000);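 active = mean of two replicates above 20%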;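 note: 0% = compound-free wells with enzyme and 100% = wells lacking proteasome; stock transfer was 100 nL into about 20 µL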
# Target sequence (Q9Y5K5 whole entry, looked up): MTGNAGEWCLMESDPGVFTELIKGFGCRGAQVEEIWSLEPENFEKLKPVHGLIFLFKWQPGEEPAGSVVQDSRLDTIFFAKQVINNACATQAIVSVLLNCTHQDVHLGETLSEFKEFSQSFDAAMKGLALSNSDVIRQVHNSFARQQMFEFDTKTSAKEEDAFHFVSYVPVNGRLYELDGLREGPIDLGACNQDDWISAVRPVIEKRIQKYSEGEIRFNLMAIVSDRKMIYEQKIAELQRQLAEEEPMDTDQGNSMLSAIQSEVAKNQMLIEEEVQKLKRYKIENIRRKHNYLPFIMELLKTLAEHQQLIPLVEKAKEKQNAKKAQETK
#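 assay system = human UCH37 enzyme supplied as purified proteasome complex | amount = proteasome at 0.15 nM in the dispensed enzyme solution | schedule = 30 min compound-proteasome preincubation then 25 min substrate reaction, room temperature | measured by = fluorescence, ex 355 nm, em 460 nm | benchmarks = no-proteasome wells (full inhibition) and compound-free wells (no inhibition)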
# Ecoli rRNA inh: inhibits bacterial ribosomal RNA function over humanized ribosomes | E. coli WT GFP vs humanized-ribosome RFP mutants, fluorescence, 24 h; active compounds read low; DMSO median 0, no signal -100 | GFP signal change (wild-type ribosome), % (concentration not given with the values) | actives 1.6% (n = 350,000) | AID 720706;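 active = significant combined selectivity score with lowered wild-type GFP, culture density cut under 30%, mutant RFP and density less affected; inactive = any of these conditions unmet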; note: one replicate is shown; some compounds called inactive have numbers as strong as hits
# ALR inh: blocks human ALR sulfhydryl oxidase activity; P55789; purified ALR, DTT oxidation, H2O2 HRP-luminol luminescence; inhibition, % (test concentration not listed); actives 3.8% (n = 290,000); AID 485317;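 active = mean and each replicate at 75% or more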;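 note: stock transfer was 7.5 nL into about 7.5 µL; 0% = neutral wells and 100% = wells with inactivated enzyme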
# Beta2AR agonist: agonists of human beta-2 adrenergic receptor inducing internalization; P07550; Am2.2-beta2AR cells, FAP receptor internalization, flow cytometry; reference of the scale not given here; response, % (concentration not given with the values); actives 0.43% (n = 340,000); AID 504454;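 active = response above a set limit, near 3 SD of response in nonfluorescent compounds, cut at about 42% in these data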;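 note: stock transfer was 100 nL into about 11 µL; a reference agonist was the positive control; negative values mostly stem from fluorescent compounds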
# FGF22 binding: FGF22 (human) thermal shift binding; Q9HCT0; recombinant FGF22 thermal shift, SYPRO orange fluorescence; percent of sucrose octasulfate shift, DMSO zero; calls only at 9.99 µM; actives 1.5% (n = 340,000); AID 651658;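 active = melting point raised past a set limit in the mean and every replicate; three in four hits are not shown here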
# Target sequence (Q9HCT0 whole entry, looked up): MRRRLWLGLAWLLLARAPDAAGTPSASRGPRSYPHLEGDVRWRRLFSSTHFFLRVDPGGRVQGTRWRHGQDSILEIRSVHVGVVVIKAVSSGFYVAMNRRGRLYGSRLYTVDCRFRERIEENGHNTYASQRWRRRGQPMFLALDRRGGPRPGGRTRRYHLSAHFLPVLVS
# Ecoli growth: E. coli growth inhibition; OD600 absorbance (test concentration not listed); Escherichia coli growth, OD600, 23 h; active compounds read low; actives 0.21% (n = 330,000);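 active = OD600 absorbance below the run mean of sample wells minus 3.6 SD, in any replicate, cut at about 0.56 in these data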;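 note: stock transfer was 300 nL into about 60 µL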
# Ecoli rRNA inh OD600: recorded beside Ecoli rRNA inh, whose call it bears; OD600 change, %; measured here: OD600 growth;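 optical density of the mix in the first replicate; 0 = DMSO median and -100 = no signal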
# Ecoli rRNA inh RFP: recorded beside Ecoli rRNA inh, whose call it bears; RFP signal change, %; measured here: RFP humanized mutant strains;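 first replicate; 0 = DMSO median and -100 = no signal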
# An asterisk follows results filed as active; i = inactive; nt = not tested or not shown; & = joins results of further samples.
SMILES,HNF4A DNA FP,UCH37 inh,Ecoli rRNA inh,Ecoli rRNA inh OD600,Ecoli rRNA inh RFP,ALR inh,Beta2AR agonist,FGF22 binding,Ecoli growth
CCOC(=O)c1c(NC(=O)CCS(=O)(=O)c2ccccc2)sc2c1CC(C)(C)NC2(C)C,3.5,0.5,3,4,0.3,-14,0,i,0.67
COc1cc(OC)c(C(=O)Oc2ccc3c(c2)OCO3)cc1OC,-0.1,5.7,nt,nt,nt,-10,-2,nt,0.69
Cc1ccc(C2(C)NC(=O)N(CC(=O)N3CCN(S(=O)(=O)c4cccs4)CC3)C2=O)cc1 (configuration not stated),-0.6,1.0,1,3,2.6,-4,-4,i,0.71
CCOCCCNC(=O)c1cccc(OC2CCN(S(C)(=O)=O)CC2)c1,1.9,0.7,7,10,-1.2,-5,-66,i,0.68
O=C(NCc1ccco1)c1cccc(-c2ccc3nncn3c2)c1,0.7,nt,3,10,-3.0,nt,nt,i,nt
CN(C)S(=O)(=O)c1cccc(-c2nn(-c3ccccc3)cc2/C=C(\C#N)c2nc3ccccc3[nH]2)c1,21,nt,nt,nt,nt,1,8,nt,nt
Cc1cccc(C)c1-n1c(C)nn(CC2CC2)c1=O,0.3,4.1,2,8,-3.0,9,0,i,0.7
CC(C)Oc1ccc(C(=O)NC(C)(C)CO)cc1,-1.5,-1.2,nt,nt,nt,nt,-2,nt,0.68
CCOC(=O)c1c(NC(=O)c2ccccc2C(=O)O)sc2c1CCC2,-1.2,7.5,-11,-2,-2.5,3,1,i,0.68
CC1Cc2ccccc2N1C(=O)C1CCCN1S(=O)(=O)c1ccc(Cl)cc1 (configuration not stated),2.3,4.7,nt,nt,nt,-8,10,nt,0.67
CCN(CC)CCOC(=O)c1cccc(Cl)c1,-0.1,-1.2,nt,nt,nt,-25,3,nt,0.63
O=C(Nc1ccc2c(c1)OCCO2)c1ccoc1,1.8,6.7,16,3,-0.3,-3,-3,i,0.67

# Structures listed so far with a Cl atom (2):
SMILES,HNF4A DNA FP,UCH37 inh,Ecoli rRNA inh,Ecoli rRNA inh OD600,Ecoli rRNA inh RFP,ALR inh,Beta2AR agonist,FGF22 binding,Ecoli growth
CC1Cc2ccccc2N1C(=O)C1CCCN1S(=O)(=O)c1ccc(Cl)cc1 (configuration not stated),2.3,4.7,nt,nt,nt,-8,10,nt,0.67
CCN(CC)CCOC(=O)c1cccc(Cl)c1,-0.1,-1.2,nt,nt,nt,-25,3,nt,0.63

# The list goes on.
SMILES,HNF4A DNA FP,UCH37 inh,Ecoli rRNA inh,Ecoli rRNA inh OD600,Ecoli rRNA inh RFP,ALR inh,Beta2AR agonist,FGF22 binding,Ecoli growth
Cc1nn(C)c(C)c1NC(=O)/C(C#N)=C\N(C)C,-2.8,1.8,24,12,5.0,-1,7,nt,0.72
COC(=O)CN1C(=O)C2(C(C#N)=C(N)Oc3ccccc32)C2=C1CC(C)(C)CC2=O (configuration not stated),-1.4,4.5,nt,nt,nt,1,1,nt,0.73
O=C(CCC(=O)N1CCN(S(=O)(=O)c2ccccc2)CC1)NC1CCCc2ccccc21 (configuration not stated),-0.7,4.1,nt,nt,nt,-3,-7,nt,0.71
CC1=Nc2cc(C(=O)NCCCOC(C)C)ccc2Sc2ccc(C)cc21,2.5,4.0,-6,3,1.9,-8,14,i,0.69
N#Cc1ccc(COC(=O)CCc2c[nH]c3ccccc23)cc1,0.1,0.6,-5,-9,2.1,5,10,i,0.71
C#CCOCCOCCOCCNc1nc(N2CCN(C(=O)CCCCCCCCCCNC(=O)[C@H](CCC(=O)O)n3cc(CCCCCN)nn3)CC2)nc(N2CCN(C(=O)CCCCCCCCCCNC(=O)[C@@H]([C@H](C)O)n3cc(C)nn3)CC2)n1,-1.5,1.3,nt,nt,nt,-8,25,nt,nt
COc1cccc(/C=C/C(=O)Nc2ccccc2N2CCOCC2)c1,-4.5,4.3,-23,-25,-3.1,7,-4,i,0.68
Cc1cc(NC(=O)c2ccc(Br)c([N+](=O)[O-])c2)no1,1.9,0.4,4,11,-2.4,1,4,i,0.69
COc1cccc(NC(=O)CSc2nc3c(sc4ccccc43)c(=O)n2CCCN2CCCC2)c1,8.0,3.2,-1,-8,7.8,97*,18,i,0.69
CC(C)(C)C(=O)N1CCC(O)(CS(=O)(=O)c2ccc(Cl)c(Cl)c2)CC1,-2.2,3.9,4,14,-0.7,nt,-3,i,0.7
CC(=O)Nc1ccc(NC2=C(Cl)C(=O)c3ccccc3C2=O)cc1,nt,12,11,7,1.3,nt,nt,i,0.66
O=C(NCc1cccnc1)/C(=C/c1ccc(-c2cccc(C(F)(F)F)c2)o1)NC(=O)c1ccccc1,2.3,-13,nt,nt,nt,-20,2,nt,0.63
COC(=O)C(C(=O)NCC1CCCO1)C1CCCCCC1 (configuration not stated),-0.7,2.5,nt,nt,nt,1,7,nt,0.81
CCOc1ccc2nc(NS(=O)(=O)c3cccs3)sc2c1,-4.1,3.4,8,7,-0.3,nt,0,i,0.62
CCC(C)NC(=O)N[C@@H](Cc1ccccc1)C(=O)O (some centres not stated),-1.9,0.7,nt,nt,nt,-7,3,nt,nt
COc1ccc(Cl)cc1Nc1nnc(-c2ccncc2)s1,57,1.6,21&4,24&8,2.4&0.7,nt,0,i,0.65
O=[N+]([O-])c1ccc(N2CCNCC2)cc1Sc1nc2ccccc2[nH]1,-1.1,9.9,nt,nt,nt,-4,7,nt,0.7
COC(=O)Cc1c(C)nc2nc(-c3ccco3)[nH]n2c1=O,2.1,0.0,nt,nt,nt,5,0,nt,0.77
O=C(CCCCCN1C(=O)[C@@H]2Cc3ccccc3CN2C1=O)Nc1cccc(F)c1,-3.1,-1.2,-35*,-25*,-4.1*,-1,-2,i,0.69
CC1(C)C[C@H](O)[C@]2(CO)CC[C@]3(C)C(=CCC4[C@@]5(C)CC[C@H](O)C(C)(C)C5CC[C@]43C)[C@@H]2C1 (some centres not stated),-7.7,3.6,nt,nt,nt,nt,9,i,0.78
CCOC(=O)/C(C#N)=C(\O)c1ccc(NC(=O)c2ccc([N+](=O)[O-])cc2)cc1,0.3,7.2,-4,6,1.8,36,-2,i,0.64
C=CCNC(=S)N1CCC(Cc2ccccc2)CC1,4.4,5.0,-1,-25,-3.1,-19,-5,i,0.63
O=C(O)/C=C/C(=O)Nc1ccccc1SC(F)(F)F,0.9,0.6,nt,nt,nt,nt,0,nt,0.67
N#CCCN(Cc1ccccc1)C(=O)Nc1ccccc1,0.4,1.8,nt,nt,nt,1,3,i,0.61
COc1nc(NC2OC(CO)C(O)C(O)C2O)c(N)c(=O)[nH]1 (configuration not stated),-4.2,nt,8,9,1.9,nt,-8,i,nt
CC(=O)CC1(O)C(=O)N(Cc2ccccc2)c2ccccc21 (configuration not stated),-0.7,1.1,nt,nt,nt,-2,2,nt,0.7
Cc1nc2c(C)cccc2cc1C(=O)N/N=C/c1ccc(N(C)C)cc1,3.9,nt,-10,-9,-0.7,18,4,i,nt
COc1ccc(OC)c(NS(=O)(=O)c2ccc(SC)cc2)c1,-2.7,1.3,nt,nt,nt,2,-7,nt,0.71
Nc1[nH]c(C(=O)c2ccccc2)c(-c2ccccc2C(F)(F)F)c1C(=O)NCCc1cccs1,-0.1,nt,5,8,15,nt,nt,i,nt
COc1ccccc1/C=C/C1(C(=O)NC2CCCC2)CC(=O)N1c1ccc(C)cc1 (configuration not stated),0.7,2.7,nt,nt,nt,-4,-10,nt,0.7
COc1cccc(Nc2ncnc3c2cnn3C)c1,6.6,-1.6,12,0,0.2,-2,-2,i,0.69
NC(=O)/C(=C/c1ccco1)NC(=O)/C=C/c1ccccc1,-1.2,7.6,nt,nt,nt,-9,-1,nt,0.68
CC(=O)c1cc2c(ccc3ccccc32)oc1=O,-5.1,-477,-3,-3,-1.7,-32,1,i,0.65
Cn1c(=O)[nH]c(=O)c2c1nc(Br)n2CCCCSc1nc2ccccc2o1,0.1,6.1,-7,2,8.3,46,-8,i,0.74
Cc1cc(S(=O)(=O)N(Cc2ccccc2F)C2CC2)ccc1-n1cnnn1,2.8,-0.7,-31,-27,-3.6,2,-9,i,0.71
O=S(=O)(Cc1ccccc1)NCC1CCCN(Cc2ccc(F)c(F)c2)C1 (configuration not stated),1.8,1.5,18,8,3.9,-11,-5,i,0.65
O=C(CNC(=S)N(CCCN1CCOCC1)Cc1cccs1)N1CCCCCC1,1.4,0.3,11,9,-0.9,-2,-8,i,0.71
CCCCn1c(N)c(N(CC(C)C)C(=O)c2oc3ccc(OC)cc3c2C)c(=O)[nH]c1=O,0.6,-8.1,8,8,1.1,nt,1,i,0.71
Cn1c(=O)n(C)c2cc(S(=O)(=O)NCCc3ccccc3)ccc21,-1.9,0.1,nt,nt,nt,-2,-12,nt,0.76
COCCN1C(=O)C(=O)/C(=C(/O)c2ccc(S(=O)(=O)N3CCCCC3)cc2)C1c1ccc(O)c(OC)c1 (configuration not stated),0.1,10,7,11,0.8,21,3,i,0.68
O=C(Nc1ccc(S(=O)(=O)Nc2nccs2)cc1)c1cc(-c2ccccc2)nc2ccccc12,-1.5,3.3,nt,nt,nt,-1,2,nt,0.73
Cc1cc(C(=O)Nc2ccccn2)no1,2.0,-0.5,nt,nt,nt,0,6,i,0.66
CC(C)(C)OC(=O)N1CCC(CNC(=O)c2ccccc2)CC1,0.2,2.4,-14,-8,-10,nt,4,i,0.64
c1ccc(CCn2nnnc2CN2CCc3ccccc32)cc1,-1.0,4.1,nt,nt,nt,99*,5,nt,0.7
Cc1cc(OCC(=O)N2CCc3ccccc3C2)c2c(-c3ccccc3)cc(=O)oc2c1,0.3,3.8,nt,nt,nt,-17,11,nt,0.74
CCOC(=O)c1n[nH]c2ccccc12,-3.1,0.3,nt,nt,nt,nt,-1,nt,0.69
C[C@H](NC(=O)C1(c2ccccc2)CCN(C(=O)OC(C)(C)C)CC1)C(=O)N[C@@H](C(=O)O)c1ccccc1,4.5,0.7,nt,nt,nt,-36,8,i,0.72
O=S1(=O)CCN(Cc2ccccc2C(F)(F)F)CC1,-2.2,-0.2,-3,5,3.9,nt,7,i,0.68
Cc1ccc(Cl)cc1NC(=O)Cn1cc2c(n1)CCCC2,0.0,7.0,6,5,6.9,20,1,i,0.74
O=C(CSc1nnc(-c2ccncc2)n1CC1CCCO1)NCc1ccccc1 (configuration not stated),2.9,2.4,nt,nt,nt,nt,4,nt,0.71
COc1ccc(-c2c(C#Cc3ccsc3)c3cc(-c4ccc(C(N)=O)cc4)ccc3n2C)cc1,4.2,-5.3,4,-1,-6.9,0,9,i,0.74
Cc1ccc(NC(=S)NCC2CCCO2)c(OC(F)F)c1 (configuration not stated),-1.9,1.1,nt,nt,nt,-1,-15,nt,0.58
COc1cccc(CN=CC2=C(O)CC(C)(C)CC2=O)c1OC,-0.3,0.5,4,3,1.0,-3,-5,i,0.69
Cc1cc(C)n2c(SCC(=O)Nc3cc(C)on3)nnc2n1,-1.7,-11,nt,nt,nt,0,-7,nt,0.69
Cc1ccc(-n2ncc3c2CC(C)(C)CC3NC(=O)CCc2ccncc2)cc1 (configuration not stated),1.6,1.7,-11,-11,2.0,-16,1,i,0.7
NS(=O)(=O)c1ccc(CCNC(c2ccccc2)c2ccccc2)cc1,6.2,2.1,2,-5,1.4,nt,-6,i,0.64
O=C(c1ccccc1-c1nc2ccccc2[nH]1)N1CCCCC1,2.0,4.7,nt,nt,nt,1,-4,nt,0.77
CCn1cc(C(=O)NCCCOC(C)C)c(=O)c2cc(S(=O)(=O)N3CCOCC3)ccc21,-4.5,4.1,-2,-1,-3.8,-34,16,i,0.7

# These rows are one share of the data; the hit share may differ from the screen's.
